GALR2 agonist: activates the human galanin receptor 2 | O43603 | 0.48% of 140,000 active | GALR2-expressing cells, agonist activation read-out | activation, %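 (tested at 5 µM)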 | AID 803;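 active = above mean plus 3 SD of all compounds, about 5% in these data, not always enough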;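 note: 0% = vehicle buffer wells and 100% = reference agonist at full effect; tested in CHO reporter cells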
Target sequence (O43603 whole entry, looked up): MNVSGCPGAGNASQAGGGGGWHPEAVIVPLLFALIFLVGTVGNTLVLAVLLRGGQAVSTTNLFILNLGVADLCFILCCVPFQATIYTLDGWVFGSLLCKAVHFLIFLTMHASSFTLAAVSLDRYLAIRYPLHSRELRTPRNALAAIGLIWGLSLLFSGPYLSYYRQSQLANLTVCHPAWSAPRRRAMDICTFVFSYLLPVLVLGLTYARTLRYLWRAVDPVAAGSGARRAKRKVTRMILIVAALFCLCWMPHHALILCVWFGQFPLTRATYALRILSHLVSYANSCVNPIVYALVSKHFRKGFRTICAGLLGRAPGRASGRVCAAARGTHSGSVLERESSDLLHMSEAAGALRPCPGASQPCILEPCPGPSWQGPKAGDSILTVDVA
Insulin prom inh: TRM-6 insulin promoter activity inhibition. TRM-6 cells (human fetal islet line), insulin promoter-eGFP reporter, imaging; reporter expression induced with tamoxifen. inhibition, % at 2 µM. 0.9% of 130,000 active. AID 1273;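 active = inhibition above the mean plus 3 SD, with well images judged a real hit on visual review, cut at about 60% in these data, passing the limit was not always enough; inconclusive = inhibition over the cutoff but images rejected on review; inactive = inhibition not above the cutoff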
PKD1 inh: PKD1 (human) kinase inhibition; Q15139; PKD1 kinase fluorescence polarization assay; inhibition, %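 (about 10 µM by stock and volumes)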; 0.056% of 200,000 active; AID 797;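 active = inhibition of 50% or more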;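 note: controls were vehicle for no effect and a reference inhibitor for full effect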
HSV replic up: HSV replication enhancement | maximum fold increase | HSV replication augmentation in cells, fold increase | AID 1956 | 0.005% of 220,000 active;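 active = peak rise of 1.5-fold or more in the series; inconclusive = self-fluorescent or not available for retest; tested in PC3 cells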;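 note: first round at 10 µM; read as green reporter fluorescence; hits show the peak of a series up to 25 µM; 1 = signal of infected wells without compound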
RGS16-Gao: regulators of human RGS16-Galphao interaction; bead-based flow cytometry RGS16-Galphao binding, fluorescence; actives lie on both sides; binding response (% of control), % at 10 µM; 0.38% of 220,000 active;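 active = below 25% or above 175%, edge rows of some plates excepted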;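 note: Galphao activated by GDP with aluminum fluoride before binding; 100% = wells without compound and 0% = beads without RGS; some results beyond the cut were filed as inactive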
Target sequence (O15492 whole entry, looked up): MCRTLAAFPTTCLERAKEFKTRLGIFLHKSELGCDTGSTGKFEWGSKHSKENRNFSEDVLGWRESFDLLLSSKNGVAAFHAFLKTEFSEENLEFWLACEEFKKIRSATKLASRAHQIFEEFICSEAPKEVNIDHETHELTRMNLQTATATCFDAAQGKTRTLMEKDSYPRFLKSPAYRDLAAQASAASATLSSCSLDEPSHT
Target sequence (P09471 whole entry, looked up): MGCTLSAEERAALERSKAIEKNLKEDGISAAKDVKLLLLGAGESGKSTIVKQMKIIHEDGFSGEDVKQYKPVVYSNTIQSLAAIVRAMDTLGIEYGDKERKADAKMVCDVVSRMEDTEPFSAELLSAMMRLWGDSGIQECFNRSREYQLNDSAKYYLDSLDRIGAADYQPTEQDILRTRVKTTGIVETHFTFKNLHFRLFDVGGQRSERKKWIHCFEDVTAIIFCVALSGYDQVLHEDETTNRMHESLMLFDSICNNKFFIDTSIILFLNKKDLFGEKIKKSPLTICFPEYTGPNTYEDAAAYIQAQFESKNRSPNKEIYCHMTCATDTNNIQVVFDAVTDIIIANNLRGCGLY
Insulin prom inh cell count: second read-out of Insulin prom inh, no call of its own (marks repeat the call); normalized cell count, %; measured here: cell count, toxicity; reference of the scale not given here;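 cells exposed to compound for 48 h; stained nuclei by imaging scaled within each plate; lower means fewer cells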
HSV replic up primary fold: recorded beside HSV replic up, whose call it bears; fold increase; compound at 10 µM; measured here: primary screen fold increase 10 uM; tested in PC3 cells;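 GFP signal in the first replicate; 1 = infected wells without compound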
* = called active by the depositor; i = inactive; ? = inconclusive; . = no result given. This is a random part of the collection. Share with any hit: about 1.2%.

SMILES	GALR2 agonist	Insulin prom inh	Insulin prom inh cell count	PKD1 inh	HSV replic up	HSV replic up primary fold	RGS16-Gao
O=C(O)Cc1ccc(N=Cc2c(O)ccc3ccccc23)cc1	-1.3	13.3	117.8	4.3	i	0.87	101.7
CSc1ccccc1C(=O)Nc1cc(C)cc(C)c1	-3.9	-23.3	165.8	-0.6	i	0.943	101.0
COc1cccc(CNC(=O)C2CCN(S(=O)(=O)c3ccc(F)cc3)CC2)c1	-0.9	-8.1	70.4	-4.9	i	1	101.1
Cn1c(=O)c2c(ncn2CC(=O)N2CCN(c3ccc(F)cc3)CC2)n(C)c1=O	0.2	-10.0	94.3	3.6	i	1	96.8
CCOc1ccc(N2C(=O)CC(N(CCc3ccccc3)C(=O)/C=C/C(=O)O)C2=O)cc1 (stereo not given)	.	-41.7	95.6	3.5	i	1.08	100.7
Cc1ccc2cc(CN(CC3CCCO3)C(=O)C(C)C)c(=O)[nH]c2c1 (stereo not given)	-0.8	13.5	127.0	-5.3	i	0.91	102.2
Brc1ccc(-c2ccc(/C=N/Nc3nc4ccccc4[nH]3)o2)cc1	22.8*	32.3	95.8	1.5	i	1	101.0
COCCNC(=O)Cn1cnc([N+](=O)[O-])n1	.	.	.	1.4	i	0.99	101.3
CCOC(=O)/C=C1\SCC(=O)N1Cc1nnc(-c2ccccc2Br)o1	1.3	-30.8	93.3	5.2	i	1.04	97.6
CCOc1cc(/C=N/NS(=O)(=O)c2ccc(OC)cc2)ccc1OCCN1CCOCC1	-0.5	-53.3	54.7	5.6	i	0.88	90.6
CC(C)(C)c1cc[n+](C2=C([O-])c3ccccc3C(=O)/C2=N\S(=O)(=O)c2cccs2)cc1	.	.	.	.	i	0.58	98.3
CCOC(=O)C1CCN(C(=O)C2(NC(=O)Nc3cccc(F)c3)CCCCC2)CC1	.	.	.	-3.8	i	1.04	102.3
CCN(CC)CCn1c(NC(=O)c2ccc(C(F)(F)F)cc2)nc2ccccc21	.	.	.	-7.8	i	0.95	102.4
Nn1c(SCC(=O)N2CCN(S(=O)(=O)c3ccc(Cl)cc3)CC2)nnc1-c1cccs1	-1.0	-19.2	105.3	4.3	i	0.957	96.1
CC(C)(C)SCCNC(=O)CSc1ccccc1	-1.6	.	.	-3.9	i	1.11	.
COc1ccc(S(=O)(=O)Cc2ccc(C(=O)N3CCN(c4ccccc4)CC3)o2)cc1	-0.4	-120.0	103.5	-8.7	i	0.7	102.2
CCOC(=O)c1cccc(NC(=O)C2CCCN(S(=O)(=O)c3c(C)nn(C)c3C)C2)c1 (stereo not given)	-1.9	.	.	-11.3	i	0.87	105.8
COc1ccc(C/C(N)=N/OC(=O)Cc2ccc(OC)c(OC)c2)cc1	-3.9	10.0	154.7	0.5	i	0.89	99.5
CCOC(=O)C1=CN(C)C=C(C(=O)OCC)C1c1ccsc1	9.8	.	.	-14.3	i	0.6	143.0
C[C@]12C=CC(=O)C=C1CCC1C3CC[C@](O)(C(=O)CO)[C@@]3(C)CC3OC312 (stereo not given in full)	-1.0	-78.6	200.0	-12.8	i	0.97	99.6

Individual results from the entries so far.
CCOC(=O)c1cccc(NC(=O)C2CCCN(S(=O)(=O)c3c(C)nn(C)c3C)C2)c1 (stereo not given) in PKD1 inh is listed with -11.3
CCOc1cc(/C=N/NS(=O)(=O)c2ccc(OC)cc2)ccc1OCCN1CCOCC1 in HSV replic up primary fold is listed with 0.88
COc1ccc(S(=O)(=O)Cc2ccc(C(=O)N3CCN(c4ccccc4)CC3)o2)cc1 in GALR2 agonist is listed with -0.4
Nn1c(SCC(=O)N2CCN(S(=O)(=O)c3ccc(Cl)cc3)CC2)nnc1-c1cccs1 in HSV replic up primary fold is listed with 0.957
COCCNC(=O)Cn1cnc([N+](=O)[O-])n1 in HSV replic up primary fold is listed with 0.99
CCOC(=O)C1=CN(C)C=C(C(=O)OCC)C1c1ccsc1 in HSV replic up primary fold is listed with 0.6
COc1cccc(CNC(=O)C2CCN(S(=O)(=O)c3ccc(F)cc3)CC2)c1 in GALR2 agonist is listed with -0.9

Remaining list, next part.
SMILES	GALR2 agonist	Insulin prom inh	Insulin prom inh cell count	PKD1 inh	HSV replic up	HSV replic up primary fold	RGS16-Gao
Cc1ccc(S(=O)(=O)N(C)CC(=O)Nc2ccccc2)cc1	0.6	-37.9	103.5	-4.5	i	0.89	84.9
CC/C(=N\NC(=O)c1cccnc1)c1ccc2c(c1)OCCO2	.	38.9	72.4	1.6	i	1.2	102.2
C=CCc1c(C)[nH]c(=O)[nH]c1=O	.	77.8*	87.4*	5.7	i	0.9	104.2
Cn1c(=O)c2c(nc(CN3CCC(C(N)=O)CC3)n2CCCc2ccccc2)n(C)c1=O	-2.1	7.1	142.6	-7.5	i	1.01	99.9
O=C(c1cnc(-c2ccc(Cl)cc2)s1)c1ccc(Cl)cc1Cl	-1.7	28.0	99.2	-9.2	i	0.89	101.0
C/C(=N\NC(=O)c1c(C)nc2ccccn12)c1ccco1	.	.	.	-2.5	i	0.96	116.7
c1cnc(Sc2ccc3nnnn3n2)nc1	.	-105.9	78.8	-9.9	i	0.96	101.3
Brc1ccc(NCc2nnc3n2CCCCC3)cc1	-2.0	.	.	1.4	i	1.1	80.8
CC1Cc2ccccc2N1C(=O)CN1CCC(C(N)=O)CC1 (stereo not given)	.	.	.	1.1	i	0.95	94.5
Cc1ccc(C(=O)/C=C/C(=O)c2ccc(C)cc2)cc1	.	.	.	-1.5	i	0.64	84.0
CSc1nsc(SCC(=O)Nc2ccc(OC(C)=O)cc2)n1	.	.	.	2.3	i	0.92	99.8
COc1cccc(NC(=O)N2CCCC2C(=O)NCC(C)C)c1 (stereo not given)	-1.5	.	.	-0.9	i	0.89	141.8
CCSc1nnc(NC(=O)CSc2nc3c(cc2C#N)CCCC3)s1	0.0	-20.4	84.7	2.2	i	0.79	79.0
CC(C)CCNC(=O)C(c1ccco1)N(CC1CCCO1)C(=O)Cn1nnc2ccccc21 (stereo not given)	-0.1	-58.4	89.7	-5.3	i	0.9	97.2
Cc1cc(N2CCN(c3ccccc3)CC2)nc(-c2ccccc2)n1	-1.3	.	.	-8.5	i	0.813	120.8
NC(=O)c1csc(-c2ccncc2)n1	-2.2	19.4	124.5	14.0	i	0.9	101.4
COCCn1c(SCC(=O)Nc2ccc(S(=O)(=O)N(C)C)cc2)nc2ccccc21	-1.6	26.9	119.6	-12.7	i	0.977	89.4
CCC(c1nnnn1Cc1ccccc1)N1CCN(c2ccccc2)CC1 (stereo not given)	.	50.0	96.8	-5.6	i	1.21	102.3
CC1CN(C(=O)c2cccn(Cc3c(Cl)cccc3Cl)c2=O)CC(C)O1 (stereo not given)	.	.	.	-2.2	i	0.89	101.6
CCOc1ccc(/C=C/C(=O)c2c(O)c3ccccc3oc2=O)cc1	-3.4	43.2	192.6	-4.3	.	.	101.3

Ordered by length of the SMILES (rising): part of the list above.
SMILES	GALR2 agonist	Insulin prom inh	Insulin prom inh cell count	PKD1 inh	HSV replic up	HSV replic up primary fold	RGS16-Gao
CCSc1nnc(NC(=O)CSc2nc3c(cc2C#N)CCCC3)s1	0.0	-20.4	84.7	2.2	i	0.79	79.0
Cc1cc(N2CCN(c3ccccc3)CC2)nc(-c2ccccc2)n1	-1.3	.	.	-8.5	i	0.813	120.8
CC(C)CCNC(=O)C(c1ccco1)N(CC1CCCO1)C(=O)Cn1nnc2ccccc21 (stereo not given)	-0.1	-58.4	89.7	-5.3	i	0.9	97.2

Continuation:
SMILES	GALR2 agonist	Insulin prom inh	Insulin prom inh cell count	PKD1 inh	HSV replic up	HSV replic up primary fold	RGS16-Gao
CC1CCCCN1C(=O)c1cnn2c(C(F)(F)F)cc(-c3ccco3)nc12 (stereo not given)	-1.1	.	.	-8.6	i	0.88	98.6
CC(=O)c1cccc(S(=O)(=O)NC2CC2)c1	0.4	.	.	0.1	i	0.97	96.2
Cc1nc(NC(=O)/C=C/c2ccccc2)sc1C(=O)N(C)C	-0.8	7.1	118.4	-5.2	i	0.86	95.7
COC(=O)[C@@]1(Cc2ccccc2)[C@H]2c3cc(C(=O)N4CCCC4)n(Cc4ccsc4Br)c3C[C@H]2CN1C(=O)c1ccccc1	0.7	-85.0	106.7	-5.1	i	0.92	98.0
CC(=O)N(C1=C(Cl)C(=O)c2ccccc2C1=O)C1CCCCC1	.	.	.	.	?	.	3.0*
Nc1ccc(Nc2ccccc2)cc1	-5.8	20.8	81.4	-2.8	i	0.83	88.7
CCN1CCN(c2cc(C)c3cc(NC(=S)N4CC(C)CC(C)C4)ccc3n2)CC1 (stereo not given)	.	.	.	1.8	i	0.69	96.3
CCOC(=O)C1=C(NC(=S)NC(=O)c2ccccc2)c2ccccc2CC1(C)CC (stereo not given)	0.7	-58.3	104.4	3.0	i	0.71	100.0
CC(C)CC(CC(C)C)=NNC(=O)c1ccc(CSc2nncn2C)cc1	.	14.3	136.2	-0.5	i	0.91	100.7
CC(C)c1nnc(NC(=O)c2ccc(S(=O)(=O)N3CCOCC3)cc2)s1	-1.7	42.9	160.6	-5.3	i	0.96	102.5
CC(=O)CSc1ncnc2sc3c(c12)CCC(C)C3 (stereo not given)	.	-21.1	131.5	-2.6	i	0.93	102.6
CCCOC(=O)NC(CC)COC(=O)Nc1cccc(C)c1C (stereo not given)	-2.3	.	.	5.8	i	0.993	96.6
O=C1NC(=O)C2C1C(c1ccccc1)N1C3C(=O)NC(=O)C3C(c3ccccc3)N21 (stereo not given)	-0.9	6.5	102.1	0.2	i	0.88	101.9
Cc1ccc(N2C(=O)c3cccc4c(N5CCN(C)CC5)ccc(c34)C2=O)c2cccnc12	1.1	28.0	149.2	5.1	.	.	106.7
CCc1cc(=O)n2[nH]c(C)c(-c3ccccc3OC)c2n1	-1.8	.	.	-8.8	i	0.81	106.2
CC1Nc2ccccc2C(=O)N1NC(=O)c1ccc(Br)cc1 (stereo not given)	.	0.0	51.9	-7.4	i	1.05	105.5
CCOC(=O)C1(CCCc2ccccc2)CCN(C(=O)CCn2cnnn2)CC1	.	.	.	-3.6	i	1.05	91.5
COc1ccccc1/C=N/OCC(=O)NCc1ccc2c(c1)OCO2	-0.2	.	.	5.4	i	1.01	116.8
CCOC(=O)C1CCCN(C(=O)C(C)(C)Oc2ccc(Cl)cc2)C1 (stereo not given)	.	-9.1	78.4	-8.7	i	0.95	103.3
CCOC(=O)Cc1csc(N/N=C/c2ccc(C(F)(F)F)cc2)n1	-1.8	-38.7	139.9	-9.5	.	.	107.1
CC1(C)CC(=O)C(C=Nc2cccnc2)=C(O)C1	-3.3	.	.	8.9	i	1.1	103.9
CC(=O)c1cc(F)c(N2CCN(CCC#N)CC2)cc1C	-1.4	31.8	104.7	-2.6	i	1.03	110.2
Cn1nc(C(=O)Nc2cccc(C(F)(F)F)c2)ccc1=O	-0.2	-38.9	164.3	-11.0	i	0.76	104.0
Cc1cc(C)c[n+](CC(=O)c2cc3ccccc3oc2=O)c1	-2.3	.	.	12.5	i	1.06	31.1
O=C(COC(=O)CCCOc1ccc(Cl)cc1Cl)NCc1ccccc1	-1.8	.	.	-4.7	i	0.96	101.3
COc1cc(CNCCN2CCOCC2)ccc1OCc1ccccc1Cl	0.6	.	.	-3.3	i	0.83	102.4
Cc1ccccc1C(=O)N=c1c(C#N)cc2c(=O)n3cccc(C)c3nc2n1Cc1ccco1	0.8	-22.2	102.6	-4.9	.	.	94.7
Nc1c(Cl)nc(-c2ccccc2)nc1Cl	.	0.0	155.5	3.7	i	0.97	110.0
Cn1ncc2c(=O)n(/N=C/c3ccccc3)cnc21	-2.0	-19.2	59.1	-3.2	i	1.12	84.5
O=C(/C=C/c1ccc2c(c1)OCO2)NCC1CCCO1 (stereo not given)	.	-9.5	55.1	-8.9	i	1	95.3
CCOc1ccc(N2CC(C(=O)NCCN3C(=O)S/C(=C\c4ccc(OC)c(OC)c4)C3=O)CC2=O)cc1 (stereo not given)	0.1	-35.5	95.5	-10.3	i	1.04	100.8
Cc1[nH]nc2c1C(c1cccc(OC(=O)N3CCOCC3)c1)C(C#N)=C(N)O2 (stereo not given)	-1.1	-45.5	105.5	-3.5	i	0.86	104.3
CC(C)(C)C1=CC(=O)C(=O)C(C(C)(C)C)=C1	3.3	6.7	23.5	-8.8	i	0.58	95.1
CC(c1ccccc1)N1C(=O)c2ccccc2C1(O)Cc1ccccc1 (stereo not given)	.	.	.	-6.1	i	0.94	104.5
CSc1ncc2ncn(C3OC(CO)C(O)C3O)c2n1 (stereo not given)	.	.	.	.	i	0.96	102.0
COc1cc(NC(=O)c2noc3c2CCCC3)c(OC)cc1Cl	-0.9	.	.	-1.5	i	1	95.9
COc1ccc(OC)c(NC(=O)CSc2nnc(C3CCCCC3)n2-c2ccccc2)c1	-0.2	23.1	93.6	-0.7	i	0.91	142.3
